From PubChem
Tg IFNy HTS – T. gondii growth inhibition under IFN-gamma | 69,000 tested, 3.8% active | activity change, negative = inhibition, %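 (about 20 µM by stock and volumes)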 | Toxoplasma gondii growth in IFN-gamma-treated host cells; active compounds read low; reference of the scale not given here;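 active = below -70%; inconclusive = fit judged invalid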;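 note: host cells are HeLa cells infected with Toxoplasma gondii; parasite growth read as luciferase light; one replicate is shown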
* = called active by the depositor; i = inactive; ? = inconclusive; & = joins results of further samples. These rows are one share of the data (hit frequency here may not be typical).

SMILES	Tg IFNy HTS
CCC(=O)N1C[C@@H](O)COC[C@H]2O[C@H](CC(=O)NCc3ccc(Oc4ccccc4)cc3)CC[C@@H]21	-16.8
CNC(=O)c1ccc(-c2nc(CN3CCN(C(=O)Nc4ccc5c(c4)OCCO5)CC3)c(C)o2)cc1	i
COc1ccc2c3c(n(C)c2c1)[C@@H](CO)N(C(=O)Nc1ccc(F)cc1)CC31CN(C(=O)Cc2ccncc2)C1	17.7
Cc1nnc2n1CCN(C(=O)c1cn(-c3ccccc3)nn1)CC2	-0.9
CCOc1ccc(C(=O)N2CCC(C)(C(=O)NCc3ccc(F)cc3F)CC2)cc1	-1.9
Cc1cnc2n1CCN(C)C21CCN(C(=O)CC(C)C)CC1	16.6
NC(=S)N(c1ccccc1)c1ccccc1	1.0
COCCN1C[C@@H]2CN(C(=O)c3cnn(C)c3)C[C@H]2C1=O	-1.2
CC1N(C)C(=O)COC12CCN(C(=O)c1ccno1)CC2 (stereo unspecified)	0.6
COc1ccc(NCCc2ccccn2)cc1	i
CCOC(=O)CC1CCCCN1Cc1nnc(C)s1 (stereo unspecified)	2.1
O=C(C1=NOC2(C(=O)c3ccccc3C2=O)C1c1ccccc1)c1cccs1 (stereo unspecified)	28.2
O=C(c1cnccn1)N1CCC2(CC1)CCN(CC1CC1)C2=O	-18.3
CC(C)c1nccc(C(=O)NCc2nncn2C2CCCCC2)n1	-0.9
COc1ccc(C#Cc2ccc([C@@H]3[C@@H](CO)N4CCCCN(C)C[C@@H]34)cc2)cc1	-58.1
NC1CC(=O)N(C2CCCCCC2)C1 (stereo unspecified)	-25.8
O=C(c1ccn[nH]1)N1CCOC2(CCCN(c3ccccc3)C2)C1 (stereo unspecified)	-0.7
CCOC1CC2(CCN(C(=O)c3ccno3)CC2)C1	31.8
CNS(=O)(=O)c1ccc(CN2CCC(CN)C2)cc1 (stereo unspecified)	1.8
COc1ccc(Nc2ncnc3ccc(OC)cc23)cc1	-7.4&4.3
O=C(CSc1cccs1)NCCSCc1ccco1	55.7
Cc1ccc2oc(=O)n(CC(=O)NC3CCC(n4cnnc4)CC3)c2c1 (stereo unspecified)	3.1
Cc1cccc(C2c3[nH]c4ccccc4c3CCN2C(=O)c2ccccc2)c1 (stereo unspecified)	135.4
C=CCN1CCN(C(=O)CC(C)C)CC(Cc2ccc(-c3cccnc3)cc2)C1=O (stereo unspecified)	-5.5
CS(=O)(=O)CC(=O)N1CCC(c2cc(Cc3ccccc3)[nH]n2)CC1	3.5
Cc1ccc(NS(=O)(=O)c2cc3c4c(c2)CCC(=O)N4CCC3)c(C)c1	7.1
CC(=O)N1CCC2(CCOCC2COc2ccccn2)CC1 (stereo unspecified)	3.5
CN(C)CCN1C2(CCN(C(=O)C3(C)CC3)C2)c2ccccc2S1(=O)=O (stereo unspecified)	-10.3
COc1cccc(-c2ccc3c(c2)[C@H]2[C@H](CCN2S(=O)(=O)c2cn(C)cn2)[C@H](CO)N3)c1	21.6
Cn1c(=O)c2c(nc(N3CCN=C3SCC(N)=O)n2Cc2ccccc2)n(C)c1=O	-11.4
O=C(CCNc1c(-c2ccc(F)cc2)nc2cnccn12)N1CCC2(CC1)OCCO2	30.3
O=C(C[C@@H]1C=C[C@@H](NC(=O)Nc2ccc3c(c2)OCO3)[C@@H](CO)O1)NCCCN1CCOCC1	76.7
CN1CCN(C(=O)C[C@H]2CC[C@H]3[C@@H](COC[C@H](O)CN3C(=O)c3ccccc3F)O2)CC1	0.3
O=C(Nc1ccc(F)cc1F)c1ccc2nonc2c1	-26.3
CCOc1ccc(N(Cc2nc(-c3ccc(C)cc3)oc2C)S(=O)(=O)c2ccccc2)cc1	15.0
CN(C)CCOC1C2CCC1N(C(=O)c1cscn1)C2 (stereo unspecified)	0.1
COc1cc(C(=O)Oc2ccc3c(c2)C(C)CC(C)(C)N3)cc(OC)c1OC (stereo unspecified)	16.8
CCN(CC)CCCNS(=O)(=O)c1ccc2[nH]c(=O)ccc2c1	66.4
Cc1ccc(N)cc1NS(C)(=O)=O	68.4
Cc1cccc(S(=O)(=O)N2C[C@@H](O)COC[C@@H]3O[C@H](CC(=O)Nc4ccccc4)CC[C@H]32)c1	-50.5
O=C(NC1CCSC1=O)C1CC(=O)N(CCc2ccc(F)cc2)C1 (stereo unspecified)	-36.7
Cc1[nH]cnc1-c1nccn1Cc1cc(-c2cccnc2)no1	-11.8
COc1ccc(-c2nc(CN3CCC4(C=Cc5ccccc54)CC3)c(C)o2)cc1OC	4.1
C[C@H]1CN([C@@H](C)CO)C(=O)c2cccc(NS(=O)(=O)c3ccc(F)cc3)c2O[C@@H]1CN(C)Cc1ccc(Cl)c(Cl)c1	-17.3
CN1CC(C(=O)NC2(C)OC3(O)C4CCCN4C(=O)C(Cc4ccccc4)N3C2=O)CC2c3cccc4[nH]cc(c34)CC21 (stereo unspecified)	-17.5
Cc1ccc(S(=O)(=O)N2CCC(c3nc(C(=O)N4CCCC4)c(C)o3)CC2)cc1C	-52.7
COCC(=O)N1C[C@H]2[C@@H](c3ccccc31)[C@@H](CO)N2Cc1cc(F)ccc1F	3.1
O=C(NCCc1csc(-c2cccc(F)c2)n1)c1ccc(C(F)(F)F)cc1	-50.7
c1ccc(-c2nnc(Sc3nc4ccccc4s3)c3ccccc23)cc1	-27.0
CCC(=O)N1C[C@@H]2CN(c3ncccn3)CC[C@H]2C1	41.0
Cc1ccc2c(n1)N(C)CCN(C(=O)N1CCOCC1)C2	3.5
COc1cc(N2C[C@H]3C[C@H](CC(=O)N(C)C)O[C@@H]3C2)ncn1	4.6
C[C@@H]1CCCCO[C@@H](CN(C)C(=O)c2ccncc2)[C@@H](C)CN([C@@H](C)CO)C(=O)c2cc(NC(=O)CCC(F)(F)F)ccc2O1	67.4
CCOC(=O)n1ccn(C)c1=S	11.6&4.2
Cc1cc(C)n2nc(C(=O)N3CCOC(Cc4ccccc4Cl)C3)cc2n1 (stereo unspecified)	-10.2
Cc1cc(C(=O)OCC(=O)N2c3ccccc3Sc3ccccc32)c2ccccc2n1	-7.6
O=C(c1ccc(NS(=O)C23CC4CC(CC(C4)C2)C3)cc1)N1CCCC1 (stereo unspecified)	50.3
C[C@@H](NC(=O)C[C@H]1C=C[C@@H](NC(=O)c2cccnc2)[C@@H](CO)O1)c1ccccc1	26.7
CC(C)[C@@H](Cn1nnc2ccccc21)NC(=O)c1cnn2cccnc12	22.1
Cc1nc(-c2cc(S(=O)(=O)N3CCC(Cc4ccccc4)CC3)c(C)s2)sc1C	2.1
Further results.
SMILES	Tg IFNy HTS
Cc1ccc(NC(=O)c2cncc(NS(=O)(=O)c3ccc(Br)cc3)c2)c(C)c1	-35.0
CC(=O)Nc1ccccc1NC(=O)c1ccccc1F	7.9
CCOc1cccc(NC(=O)c2nc(C)oc2C(F)(F)F)c1	5.5
C=CCOCC1CN(Cc2ccc3c(c2)OCO3)Cc2ccnn2C1 (stereo unspecified)	1.6
OCC1(O)CCCN(Cc2ccncc2)CC1 (stereo unspecified)	-0.8
Cc1ccccc1-c1nc(CN2C(=O)CSc3ccc(S(=O)(=O)N4CCCC4)cc32)c(C)o1	-80.3*
Cc1cccc(S(=O)(=O)N2CCC3(CC(C(=O)N(C)Cc4ccccn4)=NO3)C2)c1 (stereo unspecified)	28.2
O=C(O)CN1CCC2(CC1)C(=O)N(CC1CC1)C2c1ccccc1 (stereo unspecified)	-1.2
N#C/C(=C1/SC[C@@H](c2ccc(Cl)cc2Cl)S1)n1ccnc1	-23.7
CC1=C(C(=O)N2CCOc3ccccc3C2)C(c2cccnc2)NC(=O)N1 (stereo unspecified)	-11.0
CN(C)CCOCc1cncc2c1CCN(c1ccccn1)C2	1.0
CCC(=O)N1C[C@@H](O)COC[C@H]2O[C@H](CC(=O)NC)CC[C@@H]21	-12.1
CCOC(=O)C1(CCCc2ccccc2)CCN(C2CCN(C(C)=O)CC2)CC1	4.0
COc1ccc(S(=O)(=O)NCCc2csc(-c3cccc(F)c3)n2)cc1OC	52.7
COc1cccc(CNC(=O)C2CC3(CO2)CN(C(=O)N(C)C)c2ccccc23)c1 (stereo unspecified)	-7.3
COc1ccccc1C1(O)CCN(Cc2ccccc2-n2cccn2)CC1	15.3
C=CCn1c(=O)c(C(=O)Nc2ccc3c(c2)OCO3)c(O)c2ccccc21	6.4
CN1c2ccc(-c3cccc(C#N)c3)cc2[C@@H]2[C@@H](CCN2C(=O)Cc2ccccn2)[C@H]1CO	29.9
O=C1CC[C@@H](NCC2=COCCO2)[C@H](c2ccccc2F)N1	-37.2
CC(=O)N1CCC(c2nc(C)cc(NC(C)C)n2)CC1	1.8
COCC(=O)Nc1ccc2c(c1)C(=O)N(C)C[C@H](OC)[C@@H](C)CN(C(=O)c1ccncc1)[C@@H](C)CO2	74.1
COC(=O)c1cc2n(n1)CCN(Cc1nc(C(C)C)cs1)C2	57.8
CN(C)C(=O)CO[C@H]1CCN(c2ncccn2)C[C@@H]1Cc1ccccc1	-2.0
O=C(c1cc(-c2ccn(CC3CC3)n2)n2ccccc12)N1CCCCC1	-3.9
COc1ccc(S(=O)(=O)Nc2nnc(-c3ccccc3Cl)s2)cc1	3.9
CCN1c2cc(C)ccc2-n2cccc2C12CCN(C(=O)Nc1ccc(OC)c(OC)c1)CC2	-31.4
COc1ccc(-c2nc3c(s2)CN(S(=O)(=O)c2c(C)cc(C)cc2C)CC3)cc1	4.5
CC(C)CCNc1nc(-c2ccc(Cl)cc2)nc2ccccc12	-92.8
CCCOC(=O)Cc1n[nH]c(=O)[nH]c1=O	8.3
COc1cc2cc(C(=O)O)n(C)c2c(OC)c1OC	6.9
Cc1ccc(CN2CCn3cc(CN(C)Cc4ccco4)nc3C2)o1	-1.9
O=C1c2ccccc2S(=O)(=O)N1CCCCN1CCN(c2ncccn2)CC1	45.8&6.5
Cc1oc(C2CCN(S(=O)(=O)c3ccc(C(C)C)cc3)CC2)nc1C(=O)N1CCCC1	?
COc1ccccc1-c1ccccc1[C@H]1[C@H](C#N)N(C(=O)CN(C)C)[C@H]1CO	-1.6
CC(C)(C)c1cc(CN2CCCC3(C2)C(=O)Nc2ccccc23)[nH]n1 (stereo unspecified)	7.5
CN(C)CC1CCC2(COCCN(C(=O)c3cscn3)C2)O1 (stereo unspecified)	-4.3
CSc1cccc(NC(=O)N2CCCCC2CCn2ccnc2C)c1 (stereo unspecified)	1.8
Cc1nc(-c2ccc(N3CCN(C(=O)c4cc5ccccc5[nH]4)CC3)nc2)sc1C	91.5
COc1ccc(S(=O)(=O)Nc2ccc3c(c2)C(=O)N([C@H](C)CO)C[C@@H](C)[C@H](CN(C)Cc2ccc(C(F)(F)F)cc2)OCCCC[C@H](C)O3)cc1	-100.7*
CCn1c(=O)[nH]c2ccccc21	10.2&8.2

As entered above:
COc1cc2cc(C(=O)O)n(C)c2c(OC)c1OC @ Tg IFNy HTS = 6.9
Cc1ccc(CN2CCn3cc(CN(C)Cc4ccco4)nc3C2)o1 @ Tg IFNy HTS = -1.9

Later entries
SMILES	Tg IFNy HTS
O=S(=O)(NCc1ccc(F)cc1F)c1ccc(-c2ccno2)s1	34.5
Cc1nn(CC(=O)NCc2ccco2)c(=O)c2nc(-c3ccccc3)sc12	-28.4
Cc1noc(C)c1S(=O)(=O)N(C)C[C@@H]1OCCCC[C@@H](C)Oc2ccc(NC(=O)CCC(F)(F)F)cc2C(=O)N([C@@H](C)CO)C[C@@H]1C	-2.5
Cn1ncc2c(NCCN3CCOC3=O)nc(C(C)(C)C)nc21	-8.8
O=C(Nn1c(-c2ccccc2)nc2ccccc2c1=O)c1ccncc1	-3.5
Cc1nn(C)cc1NC(=O)c1ccc(=O)n(CC(=O)NC2CCCCC2)c1	-21.3
C[C@H]1CCCCO[C@H](CN(C)S(=O)(=O)c2cn(C)cn2)[C@@H](C)CN([C@@H](C)CO)C(=O)c2cc(N(C)C)ccc2O1	261.8
CCOC[C@]12COC[C@H]1CN(C(=O)COc1ccccc1)C2	i
COc1cccc(CNC(=O)Nc2ccc(-c3nc(-c4ccc(C)cc4C)co3)cc2)c1	8.8
COc1ccc(F)c(CN(CCCN(C)C)Cc2ccccn2)c1	4.4
Cc1ccc(N(Cc2ccco2)S(=O)(=O)c2ccc(Cl)cc2)cc1	18.8
COCC1(C(=O)N2CCCN(S(C)(=O)=O)CC2)CCC1	1.7
C=CCN(C(=O)COc1ccccc1)c1nnc(-c2ccncc2)s1	-20.4
O=C(O)c1ccccc1NC(=O)C1CCCO1 (stereo unspecified)	-4.0
C/C=C/c1ccc([C@@H]2[C@H]3CN(C(=O)Nc4cccc(OC)c4)CC(=O)N3[C@H]2CO)cc1	9.4
N#C[C@H]1N[C@H](CO)[C@H]1c1ccc(C#Cc2ccccc2F)cc1	25.5
CCN1c2ccccc2-n2cccc2C12CCN(C(=O)Nc1cccc(Cl)c1C)CC2	-38.5
O=C(C[C@H]1CC[C@H]2[C@@H](COC[C@H](O)CN2Cc2nccs2)O1)N1CCC(Cc2ccccc2)CC1	-50.4

Exported bar-delimited: part of the list above
smiles | Tg IFNy HTS
O=C(c1cc(-c2ccn(CC3CC3)n2)n2ccccc12)N1CCCCC1 | -3.9
COc1ccc(S(=O)(=O)Nc2nnc(-c3ccccc3Cl)s2)cc1 | 3.9
CCN1c2cc(C)ccc2-n2cccc2C12CCN(C(=O)Nc1ccc(OC)c(OC)c1)CC2 | -31.4
COc1ccc(-c2nc3c(s2)CN(S(=O)(=O)c2c(C)cc(C)cc2C)CC3)cc1 | 4.5
CC(C)CCNc1nc(-c2ccc(Cl)cc2)nc2ccccc12 | -92.8
CCCOC(=O)Cc1n[nH]c(=O)[nH]c1=O | 8.3
COc1cc2cc(C(=O)O)n(C)c2c(OC)c1OC | 6.9
Cc1ccc(CN2CCn3cc(CN(C)Cc4ccco4)nc3C2)o1 | -1.9
O=C1c2ccccc2S(=O)(=O)N1CCCCN1CCN(c2ncccn2)CC1 | 45.8&6.5
Cc1oc(C2CCN(S(=O)(=O)c3ccc(C(C)C)cc3)CC2)nc1C(=O)N1CCCC1 | ?
COc1ccccc1-c1ccccc1[C@H]1[C@H](C#N)N(C(=O)CN(C)C)[C@H]1CO | -1.6
CC(C)(C)c1cc(CN2CCCC3(C2)C(=O)Nc2ccccc23)[nH]n1 (stereo unspecified) | 7.5
CN(C)CC1CCC2(COCCN(C(=O)c3cscn3)C2)O1 (stereo unspecified) | -4.3
CSc1cccc(NC(=O)N2CCCCC2CCn2ccnc2C)c1 (stereo unspecified) | 1.8
Cc1nc(-c2ccc(N3CCN(C(=O)c4cc5ccccc5[nH]4)CC3)nc2)sc1C | 91.5
